UCH37 inh – blocks the human deubiquitinase UCH37. Q9Y5K5. purified proteasome/UCH37, Ub-AMC cleavage fluorescence. inhibition, % (no concentration beside the values). AID 588478. 330,000 compounds, 0.33% hits;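 active = mean of two replicates above 20%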;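 also: 0% = compound-free wells with enzyme and 100% = wells lacking proteasome; stock transfer was 100 nL into about 20 µL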
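Material: Human UCH37 enzyme supplied as purified proteasome complex | Schedule: 30 min preincubation with enzyme, 25 min cleavage at room temperature | Detection: AMC fluorescence 355/460 nm | Measure: % inhibition of Ub-AMC cleavage fluorescence | Controls: Wells without proteasome as full block, compound-free enzyme plus substrate as uninhibited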
A1 inh – inhibitors of the anti-apoptotic protein A1, read as caspase activation | MEF A1-2A-BIM cells, Caspase-Glo 3/7 luminescence, 3 h; percent of clofoctol response, vehicle zero | 330,000 compounds, 0.066% hits | caspase activation, % (no concentration beside the values);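 active = over half of replicate activation scores above 10%, or exactly half above 10 with the replicate mean above 10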;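 also: wells of about 30 µL received 50 nL stock; many hits fall short of the cut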
MLL AF4-AF9 inh – inhibitors of human MLL-AF4/AF9 interaction. inhibition, % at 10 µM. P42568. AlphaScreen, biotin-AF4 peptide binding to FLAG-AF9. 350,000 compounds, 0.47% hits;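 active = every replicate reaching a set inhibition limit, whatever the replicate mean, cut at about 25% in these data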;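 also: 0% = plate neutral control median and 100% = total signal loss; the record names both 10 and 1 µM as test concentration; the first replicate is given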
Target sequence (P42568 whole entry, looked up): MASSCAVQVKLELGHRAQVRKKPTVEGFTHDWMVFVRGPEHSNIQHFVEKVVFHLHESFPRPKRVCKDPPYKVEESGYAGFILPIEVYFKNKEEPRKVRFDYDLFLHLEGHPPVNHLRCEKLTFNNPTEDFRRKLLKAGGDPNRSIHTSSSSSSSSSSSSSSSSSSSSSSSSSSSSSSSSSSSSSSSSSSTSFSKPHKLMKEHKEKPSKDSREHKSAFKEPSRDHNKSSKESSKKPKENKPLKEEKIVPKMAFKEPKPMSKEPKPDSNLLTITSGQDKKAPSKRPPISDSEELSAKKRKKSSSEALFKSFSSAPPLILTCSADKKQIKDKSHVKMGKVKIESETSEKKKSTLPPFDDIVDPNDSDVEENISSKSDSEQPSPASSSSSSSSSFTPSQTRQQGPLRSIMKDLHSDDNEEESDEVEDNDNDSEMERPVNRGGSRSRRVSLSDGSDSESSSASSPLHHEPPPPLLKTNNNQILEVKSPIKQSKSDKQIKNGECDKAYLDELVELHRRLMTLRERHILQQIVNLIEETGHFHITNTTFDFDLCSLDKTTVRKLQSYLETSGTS
FGF22 binding – binders of recombinant human FGF22 by thermal shift; Q9HCT0; SYPRO orange fluorescence; percent of sucrose octasulfate shift, DMSO zero; calls only at 9.99 µM; 340,000 compounds, 1.5% hits;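 active = melting point raised past a set limit in the mean and every replicate; three in four hits are not shown here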
Target sequence (Q9HCT0 whole entry, looked up): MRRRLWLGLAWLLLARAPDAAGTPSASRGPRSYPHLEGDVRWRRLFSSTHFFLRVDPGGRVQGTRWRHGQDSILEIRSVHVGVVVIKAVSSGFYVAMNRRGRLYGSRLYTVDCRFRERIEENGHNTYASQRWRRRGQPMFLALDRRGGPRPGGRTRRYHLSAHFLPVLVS
T cruzi repl – blocks replication of Trypanosoma cruzi | T. cruzi beta-gal in NIH3T3, luminescence, 90 h | 300,000 compounds, 1.4% hits | inhibition, % (no concentration beside the values) | AID 1885;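 active = mean inhibition across valid replicates above about 55%, limit read from the data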;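 also: signal also drops with host cell toxicity which is not excluded here; 0% = plate median of DMSO wells and 100% = zero luminescence signal; higher percent means less beta-gal luminescence so fewer parasites; stock transfer was 50 nL into about 50 µL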
Beta apoptosis – beta cell apoptosis inhibition; INS-1E cytokine-induced death, ATP luminescence, 48 h; percent of positive-control rescue, neutral wells zero; protection from apoptosis, % (no concentration beside the values); 300,000 compounds, 0.8% hits; AID 435005;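 active = all replicates at 75% or more, or half of them and the mean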;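 also: 0% = cytokine-treated negative control wells and 100% = positive control rescue; higher means more ATP so stronger rescue from cytokine killing; wells of about 40 µL received 100 nL stock; the first replicate is given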
Ecoli rRNA inh – selective bacterial rRNA inhibition in E. coli | E. coli WT GFP vs humanized-ribosome RFP mutants, fluorescence, 24 h; active compounds read low; DMSO median 0, no signal -100 | 350,000 compounds, 1.6% hits | AID 720706 | GFP signal change (wild-type ribosome), % (test concentration not listed);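 active = significant combined selectivity score with lowered wild-type GFP, culture density cut under 30%, mutant RFP and density less affected; inactive = any of these conditions unmet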; also: one replicate is shown; some compounds called inactive have numbers as strong as hits
Ecoli growth – inhibitors of Escherichia coli growth; OD600, 23 h; active compounds read low; OD600 absorbance (test concentration not listed); 330,000 compounds, 0.21% hits; AID 1053175;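 active = OD600 absorbance below the run mean of sample wells minus 3.6 SD, in any replicate, cut at about 0.56 in these data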;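 also: stock transfer was 300 nL into about 60 µL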
Ecoli rRNA inh OD600 – second read-out of Ecoli rRNA inh, no call of its own (marks repeat the call); OD600 change, %; measured here: OD600 growth;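 optical density of the mix in the first replicate; 0 = DMSO median and -100 = no signal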
Ecoli rRNA inh RFP – further read-out of Ecoli rRNA inh, marked with its call; RFP signal change, %; measured here: RFP humanized mutant strains;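 first replicate; 0 = DMSO median and -100 = no signal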
An asterisk follows results filed as active; i = inactive; . = no result given; & = joins results of further samples.

1. O=C(COc1ccccc1Cl)Nc1ccc(S(=O)(=O)N2CCOCC2)cc1
2. COc1ccc(NC(=O)C2CCC(=O)N2)cc1 (centres undefined)
3. Cc1ccc2oc(C(=O)N3CCN(Cc4ncccc4C)CC3)c(C)c2c1
4. Cc1ccc(S(=O)(=O)N(C)CC(=O)Nc2ccc(C)cn2)cc1
5. CCC(C)(C)n1nnnc1C(c1ccc2ncccc2c1)N1CCCC(C)C1 (centres undefined)
6. COC(=O)c1ccc(CSc2nc3ccccc3c(=O)n2-c2ccc(OC)c(OC)c2)o1
7. c1ccc(-c2csc3ncnc(-n4cnc5ccccc54)c23)cc1
8. COc1cccc(NC2=NCCCCC2)c1
Compound,1,2,3,4,5,6,7,8
UCH37 inh,-0.1,3.2,3.0,2.1,0.4,0.6,-14,3.2
A1 inh,0.9,0.9,1.1,-0.3,-2.2,1.8,-0.7,-1.2
MLL AF4-AF9 inh,-23,.,0.0,-3.8,.,.,.,1.0
FGF22 binding,i,.,i,i,.,.,.,i
T cruzi repl,3,-15,-3,-2,-6,23,3,0
Beta apoptosis,1,-1,3,-7,-2,12,.,-2
Ecoli rRNA inh,-13,.,-31,0,.,.,.,6
Ecoli rRNA inh OD600,-18,.,-31,-1,.,.,.,2
Ecoli rRNA inh RFP,0.2,.,-4.9,-1.4,.,.,.,-4.7
Ecoli growth,0.6,0.66,0.69,0.67,0.7,0.72,0.71,0.69

Record cards, as listed above.
Record of c1ccc(-c2csc3ncnc(-n4cnc5ccccc54)c23)cc1 → UCH37 inh: -14; A1 inh: -0.7; MLL AF4-AF9 inh: .; FGF22 binding: .; T cruzi repl: 3; Beta apoptosis: .; Ecoli rRNA inh: .; Ecoli rRNA inh OD600: .; Ecoli rRNA inh RFP: .; Ecoli growth: 0.71
Record of O=C(COc1ccccc1Cl)Nc1ccc(S(=O)(=O)N2CCOCC2)cc1 → UCH37 inh: -0.1; A1 inh: 0.9; MLL AF4-AF9 inh: -23; FGF22 binding: i; T cruzi repl: 3; Beta apoptosis: 1; Ecoli rRNA inh: -13; Ecoli rRNA inh OD600: -18; Ecoli rRNA inh RFP: 0.2; Ecoli growth: 0.6

Next results
9. CCC(C)NC(=O)CNC(=S)N(Cc1ccc(F)cc1)C1CCCCC1 (centres undefined)
10. O=C(NCCCn1ccnc1)Nc1ccc(Cl)c(Cl)c1
11. C=CCN1CCN(C(=O)CSc2ccccc2)CC1
12. COCCNS(=O)(=O)c1ccc2c(c1)Cc1cc(S(=O)(=O)NCCOC)ccc1-2
13. O=C(CSc1cn(CCNC(=O)c2ccc3ccccc3c2)c2ccccc12)NCc1ccco1
14. S=c1[nH]nc(-c2ccc3ccccc3n2)n1-c1ccccc1Cl
15. c1cc2c(cc1C1CCCN1)OCCCO2 (centres undefined)
16. CN(C)c1ccc(NC(=O)CSc2nc(C3CC3)nc3ccccc23)cc1
Compound,9,10,11,12,13,14,15,16
UCH37 inh,1.5,-0.7,-2.1,0.4,-0.2,3.0,-1.4,1.1
A1 inh,0.7,-0.1,1.3,0.7,0.0,-0.8,-0.9,-0.5
MLL AF4-AF9 inh,-2.3,.,5.3,-2.7,2.7,-6.9,.,-0.1
FGF22 binding,i,.,i,i,i,i,.,i
T cruzi repl,1,44,-9,-5,7,3,15,24
Beta apoptosis,-1,-6,-4,-6,-6,-6,-5,2
Ecoli rRNA inh,7,.,11,-5,-9,3,.,0
Ecoli rRNA inh OD600,3,.,10,1,-15,6,.,5
Ecoli rRNA inh RFP,3.5,.,0.6,-3.4,2.1,4.4,.,-3.3
Ecoli growth,0.71,0.68,0.62,0.65,0.74,0.69,0.71,0.69

A second format for some results above.
#	mol	UCH37 inh	A1 inh	MLL AF4-AF9 inh	FGF22 binding	T cruzi repl	Beta apoptosis	Ecoli rRNA inh	Ecoli rRNA inh OD600	Ecoli rRNA inh RFP	Ecoli growth
10	O=C(NCCCn1ccnc1)Nc1ccc(Cl)c(Cl)c1	-0.7	-0.1	.	.	44	-6	.	.	.	0.68
15	c1cc2c(cc1C1CCCN1)OCCCO2 (centres undefined)	-1.4	-0.9	.	.	15	-5	.	.	.	0.71
14	S=c1[nH]nc(-c2ccc3ccccc3n2)n1-c1ccccc1Cl	3.0	-0.8	-6.9	i	3	-6	3	6	4.4	0.69
16	CN(C)c1ccc(NC(=O)CSc2nc(C3CC3)nc3ccccc23)cc1	1.1	-0.5	-0.1	i	24	2	0	5	-3.3	0.69
12	COCCNS(=O)(=O)c1ccc2c(c1)Cc1cc(S(=O)(=O)NCCOC)ccc1-2	0.4	0.7	-2.7	i	-5	-6	-5	1	-3.4	0.65
9	CCC(C)NC(=O)CNC(=S)N(Cc1ccc(F)cc1)C1CCCCC1 (centres undefined)	1.5	0.7	-2.3	i	1	-1	7	3	3.5	0.71

Remaining list, next part.
17. COc1ccc(NC(=O)c2cccc3c2C(=O)N(CC2CCCO2)C3)cc1OC (centres undefined)
18. CCCN1C2CCCC1CC(NC(=S)NCCCOCC)C2 (centres undefined)
19. CCNC(=S)NNC(=O)c1cc(Br)cs1
20. C[C@H](CO)N1C[C@H](C)[C@@H](CN(C)Cc2ccc3c(c2)OCO3)Oc2c(NS(=O)(=O)c3cn(C)cn3)cccc2C1=O
21. CCCS(=O)(=O)N1CCC(C(=O)Oc2ccc(OC)cc2)CC1
22. CC(C)(C)NC(=O)NCCc1ccccc1
23. COc1ccc(N(CC(=O)NC2CCCCCC2)S(=O)(=O)c2c(C)nn(C)c2C)cc1
24. COc1ccc(-c2oc3cc(O)c(OC)c(O)c3c(=O)c2OC)cc1
Compound,17,18,19,20,21,22,23,24
UCH37 inh,1.0,-0.7,4.5,-3.4,1.7,-0.5,1.0,7.5
A1 inh,-1.2,0.1,1.7,-0.5,1.3,0.0,-0.4,-0.3
MLL AF4-AF9 inh,.,3.3,-4.3,0.0&3.9,0.4,-1.1,.,2.8
FGF22 binding,.,i,i,i,i,i,.,i
T cruzi repl,-8,-15,-8,.,-6,-5,.,11
Beta apoptosis,11,-18,-3,1,-4,4,4,.
Ecoli rRNA inh,.,14,-34,2&2,9,28,20,.
Ecoli rRNA inh OD600,.,16,20,5&4,10,12,12,.
Ecoli rRNA inh RFP,.,-14,3.1,-1.0&7.0,-2.7,2.3,-4.0,.
Ecoli growth,0.74,0.68,0.72,0.76,0.69,0.65,0.65,0.71

25. CC1CCN(S(=O)(=O)c2ccc3ccccc3c2)CC1
26. COc1ccc(/C=C/c2nc(S(=O)(=O)c3ccccc3)c(N(C)C)o2)cc1
27. COc1ccc(S(=O)(=O)N2CCC(C(=O)N3CCc4ccccc4C3)CC2)cc1Cl
28. CC1CCN(C(=O)CN2C(=O)c3ccccc3S2(=O)=O)CC1
29. CCOC(=O)C1(C)NC(c2ccccc2F)C2C(=O)N(CC)C(=O)C21 (centres undefined)
30. O=C(Cn1c(=O)oc2cc(S(=O)(=O)N3CCCC3)ccc21)NC1CCCCC1
Compound,25,26,27,28,29,30
UCH37 inh,1.0,-162,8.3,-0.7,6.1,5.9
A1 inh,0.1,0.0,0.6,-0.3,0.3,1.1
MLL AF4-AF9 inh,.,-4.6,10.0,.,-2.7,-3.1
FGF22 binding,.,i,i,.,i,i
T cruzi repl,9,9,15,-11,-11,-5
Beta apoptosis,-4,2,.,.,2,-3
Ecoli rRNA inh,.,-2,-14,.,0,7
Ecoli rRNA inh OD600,.,3,-17,.,-8,15
Ecoli rRNA inh RFP,.,0.2,16,.,-3.6,-1.1
Ecoli growth,0.67,0.69,0.67,0.73,0.68,0.74

Screening results from PubChem.

Not all compounds are listed; rates above refer to the full screens.
